# TRPML1 blocker = blocks the human TRPML1 channel. Q9GZU1. TRPML1-inducible cells, Ca2+ dye fluorescence, FDSS; active compounds read low; inhibition of EC80 agonist-evoked calcium signal. activity change, negative = inhibition, % (no concentration beside the values). actives 0.02% (n = 390,000). AID 624415; in the data active means activity change below about -50%; inconclusive means about -30% to -50%; inactive means above about -30%;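 also: stimulus is agonist 54-4 at its EC80 concentration; % is scaled to controls: 0 for no effect and ±100 for the full control effect; compound concentration not given in the record; the text of the record puts the active cut at -80%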
#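 Calcium fluorescence in TRPML1-DL cells induced overnight with Tet: a 110 s read after compound pin addition, then a 110 s antagonist read after challenge with 54-4 at 4 uM final (EC80).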
# ClpP mod = qHTS Assay for Activators of ClpP | ATP-dependent Clp protease proteolytic subunit (Bacillus subtilis (strain 168)), P80244 | purified B. subtilis ClpP, FRET peptide cleavage, 20 min | Potency, µM (doses to about 57.5 µM), for inactives: at the top dose activity change, negative = active | actives 1.9% (n = 340,000) | AID 651965, 2013; active = well fitted falling curve with a large enough effect; inconclusive = small, poorly fitted or top-dose-only effect; inactive = no such curve, though single readings can be large or run the other way; also: potency is read from the fitted curve at half-maximal effect; the source files actives as falling curves though it sought activators and does not explain the sign; nearly all actives have a fitted effect of over 65% in size; many hits overshoot -100%
# Target sequence (P80244 whole entry, looked up): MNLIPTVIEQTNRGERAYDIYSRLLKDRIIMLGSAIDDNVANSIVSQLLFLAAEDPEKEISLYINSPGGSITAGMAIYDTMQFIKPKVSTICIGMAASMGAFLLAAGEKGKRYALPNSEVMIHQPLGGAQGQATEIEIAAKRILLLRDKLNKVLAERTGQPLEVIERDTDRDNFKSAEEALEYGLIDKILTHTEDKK
#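 ClpP 10 microg/mL final, pH 8 Tris/KCl buffer with BSA, glycerol, Tween-20; compound pinned in; FRET-FV substrate; RT 20 min; Ex320/Em430; ΔFRET vs ADEP 5.8 microM, DMSO, no enzyme.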
# Sfp inh = Sfp phosphopantetheinyl transferase inhibition; Q9F4F7; Biochemical Sfp PPTase activity, qHTS; Potency, µM, inactives show max response, negative = inhibition, usual class: inhibitors; actives 3.5% (n = 310,000); AID 1490; active = well fitted inhibition curve with a large enough effect; inconclusive = small, poorly fitted or top-dose-only effect, or another doubt; inactive = no such curve, though single readings can be large or run the other way;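 also: the enzyme is Sfp with the accession as filed and its product quenches rhodamine fluorescence; potency is read from the fitted curve at half-maximal effect; 0% = enzyme reaction without inhibitor and -100% = no enzyme wells; top concentration of the series not given in the record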
#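 Fluorescence-quenching assay with 15 nM Sfp, 5 uM rhodamine-CoA and 12.5 uM BHQ-2-labelled ybbR peptide in pH 7.6 Hepes/MgCl2 buffer. Enzyme was pre-incubated with compound for 15 min at room temperature. Rate was taken from the 30-min fluorescence change (525/598 nm).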
# Menin-MLL FL inh = inhibitors of human menin-MLL interaction, wild-type MLL peptide. Fluorescence polarization, fluorescein-MLL peptide displacement from menin. FP activity change, % at 61.4 µM. 290,000 tested, under 10 active; inconclusive = falling polarisation curve, or a change in total fluorescence; inactive = total fluorescence flat and polarisation flat or rising; no compound was filed as active; the % refers to the polarisation; negative = inhibition;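 also: % of control where 0% means no effect; inhibitors lower the polarisation; unlabelled MLL peptide was the positive control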
# gsp agonist = gsp mutant agonism | gsp mutant cells, cAMP HTRF, 30 min; control for the full effect not named in the record | actives 0.13% (n = 340,000) | Potency, µM (highest dose often 76.9 µM), without a hit: top-dose activation (cAMP increase), hits mostly activators; active = well fitted activation curve with a large enough effect; inconclusive = small, poorly fitted or top-dose-only effect, or another doubt; inactive = no such curve, though single readings can be large or run the other way; cell line not stated here;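 also: phosphodiesterase inhibitor Ro 20-1724 added with compounds to block cAMP breakdown; potency is read from the fitted curve at half-maximal effect; nearly all actives have a fitted effect of over 60% in size; about a fifth of the inactives were tested at one dose only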
#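 Cells stably selected in G418 were plated at 2000/well, grown 16-24 hr, then given compounds in DMSO with the PDE inhibitor […] (300 uM solution added) for 30 min at 37C; cAMP was read by HTRF.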
# gsp antagonist = gsp mutant antagonism | gsp-mutant cells, cAMP HTRF, 30 min; control for the full effect not named in the record | Potency, µM (titrated, usually from 76.9 µM), without a hit: top-dose activity change, negative = inhibition, most hits filed as inhibitors | actives 0.4% (n = 340,000) | AID 624288; active = falling curve of any shape with a large fitted effect; inconclusive = falling curve, mostly with a smaller effect; inactive = flat or rising curve; cell line not stated here;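 also: intracellular cAMP measured with PDE inhibitor Ro 20-1724 present during compound exposure; potency is read from the fitted curve at half-maximal effect; % is scaled to controls: 0 for no effect and ±100 for the full control effect; nearly all actives have a fitted effect of over 65% in size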
#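 HTRF cAMP read-out (cAMP-d2 plus anti-cAMP antibody-K in lysis buffer, 30 min RT). Before lysis, cells are exposed to compounds with […] for 30 min at 37C in DPBS containing Ca/Mg, BSA and Tween 20.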
# TRPV1 PAM = human TRPV1 potentiation; Q8NER1; TRPV1-expressing cells, Fluo-8 calcium influx, capsaicin EC20 potentiation; host cell line not named in the record; control for the full effect not named in the record; potentiation, % at 8.33 µM; actives 0.02% (n = 320,000); active means potentiation above 80%; inconclusive means 30% to 80%; inactive means below 30%; also: 0% is about no effect
# Target sequence (Q8NER1 whole entry, looked up): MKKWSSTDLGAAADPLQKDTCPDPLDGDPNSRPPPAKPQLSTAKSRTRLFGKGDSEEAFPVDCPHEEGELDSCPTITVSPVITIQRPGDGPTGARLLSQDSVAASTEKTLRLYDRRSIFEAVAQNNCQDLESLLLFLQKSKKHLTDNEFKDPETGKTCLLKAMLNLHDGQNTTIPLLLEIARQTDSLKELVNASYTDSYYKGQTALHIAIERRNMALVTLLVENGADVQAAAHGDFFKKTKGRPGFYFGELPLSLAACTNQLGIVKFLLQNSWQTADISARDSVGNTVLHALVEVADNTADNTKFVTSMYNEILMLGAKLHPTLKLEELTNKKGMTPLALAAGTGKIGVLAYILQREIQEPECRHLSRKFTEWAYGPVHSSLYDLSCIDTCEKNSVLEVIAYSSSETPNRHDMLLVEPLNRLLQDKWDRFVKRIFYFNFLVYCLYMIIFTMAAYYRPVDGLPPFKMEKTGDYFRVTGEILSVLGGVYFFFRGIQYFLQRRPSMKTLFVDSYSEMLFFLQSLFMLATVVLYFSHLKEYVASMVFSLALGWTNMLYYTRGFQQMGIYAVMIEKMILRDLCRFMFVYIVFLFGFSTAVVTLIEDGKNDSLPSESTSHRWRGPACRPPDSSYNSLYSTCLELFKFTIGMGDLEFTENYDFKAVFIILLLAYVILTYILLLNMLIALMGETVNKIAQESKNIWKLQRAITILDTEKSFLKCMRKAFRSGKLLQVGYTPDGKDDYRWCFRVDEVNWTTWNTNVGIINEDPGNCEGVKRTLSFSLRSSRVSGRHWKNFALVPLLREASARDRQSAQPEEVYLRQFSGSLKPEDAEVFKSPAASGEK
#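 Fluo-8 calcium influx in TRPV1-expressing cells, kinetic read (ex 480/em 520 nm). Compound added and read 3 min for agonist activity, followed by capsaicin at EC20 final and 2 min further read for enhancement.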
# Starred values were filed as active, the others as inactive; u = inconclusive; x = no result given; & = joins results of further samples; [ ] = another dose, or the depositor's remark. Not all compounds are listed; rates above refer to the full screens.
SMILES	gsp agonist	Menin-MLL FL inh	gsp antagonist	Sfp inh	TRPV1 PAM	TRPML1 blocker	ClpP mod
CC(C)CC(=O)Nc1ccc(C(=O)Cn2c(=O)oc3ccccc32)cc1	u	-0.3	-2%	6%	-3	10	-1.3%
CC1CCN(C(=O)C(C)Cl)CC1 (stereo not given)	5%[15.4 µM]	u	-6%	-13%	4	3	-0.4%
CC(C)CCNc1nnnc2c1sc1nc(N3CCOCC3)c3c(c12)CC(C)(C)SC3	-45%[inhibitor]	-0.3	3%	6%	-7	30	-2.9%
CC12CC1(C)C(=O)N(c1cc(Cl)cc(Cl)c1)C2=O (stereo not given)	6%	x	-2%	x	x	-2	-0.6%
CCOC(=O)CNC(=S)N1CC2C[C@@H](C1)Cn1c2cccc1=O	u	0.9	8%	10%	u	-2	0.4%
COP(=S)(OC)Oc1ccc(Sc2ccc(OP(=S)(OC)OC)cc2)cc1	x	-3.6	0%	40µM*	x	11	-3.0%
Cc1ccc(C2N3CCCN23)cc1 (stereo not given)	7%	5.8	7%	10%	-8	16	x
COC(=O)C(O)(c1ccc(NC(=O)c2ccco2)c(OC)c1)C(F)(F)F (stereo not given)	-7%	1.4	8%	19%	-9	-9	-0.3%
COC(=O)c1ccc(N2C(=O)CC(N3CCC(n4c(=O)[nH]c5ccccc54)CC3)C2=O)cc1 (stereo not given)	0%	-1.7	-7%	0%	7	-8	7.8%
Cn1c(O)c(C=NC2CCCCCC2)c(=O)[nH]c1=S	u	-2.1	2%	16%	6	3	1.1%
Cc1nc2ccccc2c(=O)n1-c1cccc(O)c1	-5%	4.1	3%	17%	-5	18	-1.3%
Nc1ncnc2c1ncn2[C@@H]1O[C@H](COP(=O)(O)CP(=O)(O)O)[C@@H](O)[C@H]1O	x	x	-6%	12%	x	9	1.4%
CN(C)c1ccccc1	0%	x	x	x	x	-15	-0.5%
CC1CCCCN1CC(=O)c1ccc2cc[nH]c2c1 (stereo not given)	-34%	2.0	1%	-19%	-3	2	4.3%
CCOc1ccc(-n2c(O)c(/C=C3\C=Nc4ccccc43)c(=O)[nH]c2=O)cc1	-32%[inhibitor]	u	-22%	-3%	15	18	-0.1%
NCCNc1ccc([N+](=O)[O-])c2cccnc12	-21%	-3.7	-20%	-13%	16	1	1.9%
COC(=O)C1=C(c2ccc(Cl)c(C(F)(F)F)c2)C[C@@H]2CC[C@H]1N2C(=O)NCc1ccco1	x	x	-10%	x	-10	-12	-1.3%
CCCCOCCCN1C(C)=CC(=C2C(=O)NC(=S)NC2=O)C=C1C	25%	-1.6	4%	19%	17	39	-4.5%
CC1=C(C(=O)Nc2ccccc2)SCCO1	x	3.1	0%	-1%	5	-6	0.6%
CN1CC[C@@]23CCCC[C@@H]2[C@@H]1Cc1ccc(O)cc13	x	3.5	-1%	5%	6	-1	0.9%
COc1ccc(C2C(C#N)=C(N)Oc3c2c(=O)oc2ccccc32)cc1Cn1cc([N+](=O)[O-])cn1 (stereo not given)	-3%	-0.2	6%	17%	-10	-1	4.7%
CCc1ccc(NC2=NCCCS2)cc1	0%[15.4 µM]	-4.4	18%	24%	21	4	x
O=c1[nH]c(=O)n(Cc2ccccc2)c(O)c1C=Nc1ccc(CN2CCOCC2)cc1	-2%	7.2	-4%[15.4 µM]	56µM*	2	21	-5.5%
CC(C)NC(=O)Cn1cc(C(=O)c2ccccc2)c2ccccc21	-10%	-1.0	-10%	0%	8	-7	-1.9%
Nc1c(C(=O)NCc2ccco2)c2nc3ccccc3nc2n1CCN1CCCCC1	-11%	u	15%	-16%	-18	18	-20%
Cn1cc(C=O)c2nccnc21	u	x	x	x	x	42	-27%
CC(C)C(C)(NC(=O)c1cccn(Cc2ccc3c(c2)OC(F)(F)O3)c1=O)C(N)=O (stereo not given)	7%	0.5	1%	3%	-3	15	x
COC(=O)C(O)(c1ccc2c(c1)CCCN2)C(F)(F)F (stereo not given)	18%	-3.6	-1%	18%	-11	-8	-0.9%
Cc1ccccc1-n1c(O)c(/C=N/Nc2nc3c(c(=O)n(C)c(=O)n3C)n2C)c(=O)[nH]c1=S	30%	11	-14%	50µM*	-6	12	-5.8%
CC[n+]1c(/C=C/C=C/c2ccc(N(C)C)cc2)sc2ccccc21	-85%[15.4 µM]	14	u	u	16	43	0.2%
CCOC(=O)[C@]12Cc3cc(OC)c(OC)cc3[C@H]1N(Cc1ccccc1)C(=O)c1ccccc12	-21%	x	-3%	x	x	26	1.1%&3.2%
S=C1CN=C(c2ccccc2Cl)c2cc(Cl)ccc2N1	-4%[15.4 µM]	0.8	u	19%	14	25	-0.7%
CCCNS(=O)(=O)c1ccc(OCC(=O)N2CCN(Cc3ccc4c(c3)OCO4)CC2)cc1	-32%[inhibitor]	4.7	u	12%	10	-24	-0.7%
CN(C)CP(=O)(Nc1ccccc1)N(C)C (stereo not given)	-29%	1.2	12%	9%	u	-6	-2.5%
COC(=O)[C@@H](N)CCCN=C(N)N[N+](=O)[O-]	x	-4.4&-1.2&-2.5&4.7	-3%	11%&10%&13%&-8%&-4%	-8	9	-0.9%
Cc1onc(-c2c(Cl)cccc2Cl)c1C(=O)Nc1ccc2c(C(F)(F)F)cc(=O)oc2c1	-40%	4.5	2%	10%	5	-5	u
C[C@]12CC[C@H](OS(=O)(=O)O)CC1=CC[C@@H]1[C@@H]2CC[C@]2(C)C(=O)CC[C@@H]12	x	x	8%&16%&2%	x	-1&-6	-1&3&3	2.9%&-2.6%&1.2%
CC(Cc1ccccc1)NCC(=O)Nc1cc(N(C)C)nc2ccccc12 (stereo not given)	0%[15.4 µM]	0.5	-14%	u	-16	17	x
C=CCCC1(C2=CCCCC2)C(=O)NC(=O)NC1=O	-1%	x	-12%	x	x	-2	-1.8%
O=C1NC(=O)N(Cc2ccco2)C(=O)/C1=C/C=C/c1ccco1	-4%	u	u	-6%	-2	-5	1.1%
COc1ccc(Br)cc1CN1CCN(C(=O)Cc2ccccc2)CC1	-30%	-2.3	-3%	u	-9	5	1.2%
CN1CCc2c([nH]c3ccccc23)C1	x	-7.1	4%	9%	1	x	-13%
CCc1cccc(CC)c1NC(=S)N1CC2CC(C1)c1cccc(=O)n1C2 (stereo not given)	19%	-2.7	4%	4%	-1	33	-2.9%
O=C(CN1C(=O)COc2ccccc21)N1CCC2(CC1)OCCO2	u	-0.7	12%	15%	13	30	3.1%
C=CCn1c(O)c(/C=N/N2CCOCC2)c(=O)[nH]c1=S	5%	6.1	-7%	-11%	0	-4	0.1%
COC(=O)C(O)(c1ccc(N(C)C(=O)c2cccs2)cc1)C(F)(F)F (stereo not given)	3%[15.4 µM]	-4.4	x	-8%	-6	10	x
CCCCN(Cc1ccccc1)C1CCN(CCc2ccccc2)CC1	-15%[15.4 µM]	3.5	11%	25%	-11	-4	x
O=C1N(c2ccccc2)C(c2cccnc2)N2CCCN12 (stereo not given)	-36%[15.4 µM]	-0.6	-11%	-1%	0	6	0.9%
CN1C(=O)NC(=O)/C(=C\c2ccc([N+](=O)[O-])o2)C1=O	9%	u	-10%	40µM*	-3	-18	x
O=C(Cn1c(=O)n(CC2CS2)c2ccccc21)N1CCCCC1 (stereo not given)	-5%[15.4 µM]	0.0	4%	16%	5	-7	x

# (list continues)
SMILES	gsp agonist	Menin-MLL FL inh	gsp antagonist	Sfp inh	TRPV1 PAM	TRPML1 blocker	ClpP mod
O=C(Nc1cccc(OC(=O)N2CCCCC2)c1)N1CCCCC1	15%	-1.1	-1%	2%	u	-5	-1.7%
O=C(c1ccc(Cl)cc1)C1CCCN(Cc2ccc3ncccc3c2)C1 (stereo not given)	-20%[15.4 µM]	5.4	3%	5%	4	5	x
C=CCn1c(O)c(C(CC)=Nc2ccccc2NC(C)=O)c(=O)[nH]c1=O	27%	6.7	5%	13%	2	16	0.2%
Cc1ccc2nsnc2c1-n1c(C)nc2ccccc2c1=O	4%	0.0	4%	2%	11	-9	-1.9%
O=P1(Nc2ccc(F)cc2)COc2ccccc2OC1	23%	6.0	-11%	-1%	-12	-12	-1.3%
O=[N+]([O-])c1cc(Cl)c(Cl)cc1Cl	x	x	2%	x	2	-4	-0.3%
Cc1nn(-c2ccccc2)c2c1C(c1ccc3c(c1)OCO3)SCC(=O)N2 (stereo not given)	-53%[inhibitor]	4.7	4%	-1%	-2	-5	-0.6%
CC(C)N1CCN(Cc2cccc([N+](=O)[O-])c2)CC1	-8%[15.4 µM]	0.1	-23%	79µM*	-5	11	x
CC(=O)NC(=O)NC(C)Cc1ccccc1 (stereo not given)	u	0.8	3%	9%	-4	20	-2.2%
CN1CCN(C(=O)COc2ccc(S(=O)(=O)Nc3ccc(Cl)cc3)cc2)CC1	-75%[inhibitor]	x	x	x	x	11	-1.3%
CCNc1nc(NC(C)(C)C)nc(SC)n1	x	x	-9%	x	x	-10	-0.1%
C=C1C/C(=C/C)C(=O)O[C@@H]2CCN3CC=C(COC(=O)[C@]1(C)O)[C@H]23	-34%[inhibitor]	-1.7	15%	-5%	13	34	-0.3%
CC(C)c1ccccc1OCC(=O)N1CCCN(C)CC1	u	-4.4	8%	19%	7	7	0.9%
COCc1ccc(CN2CCCC(C(=O)c3sccc3C)C2)o1 (stereo not given)	1%	-1.1	1%	2%	-4	18	x
NC(Cc1ccc(O)cc1)C(=O)NN=Cc1ccc(N(CCCl)CCCl)cc1 (stereo not given)	-58%[inhibitor]	x	-6%	x	x	-18	28µM*
O=C(c1cccc(C(F)(F)F)c1)C1CCCN(Cc2ncc[nH]2)C1 (stereo not given)	-9%	-3.1	7%	-17%	-4	1	x
c1ccc2c(CN3CCN(C4CCCCC4)CC3)c[nH]c2c1	-30%	9.3	6%	-26%	11	-9	-1.4%
COc1ccc(NC(=O)N2Cc3ccccc3-n3nncc3C2)cc1	27%	x	x	x	x	9	-1.5%
